# High-throughput results as filed in PubChem.
# AID504770 = growth inhibition of E. coli YBA685, primary screen, V. cholerae RctB inhibitors; E. coli YBA685 rctB-dependent plasmid, OD600 growth, 3 h; hits give low values; z-score (concentration not given with the values); 0.27% of 130,000 active;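 active means z-score under -2 on both plates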;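 further: wells of about 30 µL received 100 nL stock; score is relative to mean and SD of the test wells; the first replicate is given; strong numbers were not always called active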
# CapD inh = Bacillus anthracis CapD inhibitors, primary screen, biochemical, fluorescence intensity. 0.23% of 140,000 active. purified CapD enzyme, fluorescence intensity read-out; hits give low values; some hits fall short of the stated cut. z-score (no concentration beside the values). CapD gamma-glutamyltranspeptidase (Bacillus anthracis Ames Ancestor). AID 492967, 2010;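 active means z-score under -4 in either of two replicates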;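 further: stock transfer was 100 nL into about 40 µL; score is relative to mean and spread of the plate; one replicate is shown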
# * hit, by the source's call; / = not tested or not shown.
SMILES,AID504770,CapD inh
CC(=O)Nc1ccc(S(=O)(=O)N(c2ccc(C(F)(F)F)cc2)S(=O)(=O)c2ccc(NC(C)=O)cc2)cc1,/,-0.225
O=C(Nc1ccccc1)OCC12COC(c3ccccc3)N1C(c1ccccc1)OC2 (configuration not stated),0.65,0.49
O=c1[nH]c(-c2ccccc2)nc2c1C1(CCCC1)Cc1ccccc1-2,/,0.195
O=C1c2ccccc2-c2c(NCCc3ccccc3)c(=O)[nH]c3cccc1c23,0.55,-0.18
CCSCc1cc(OC(=O)N(C)C)nc(-c2ccc(C(F)(F)F)cc2)n1,-0.6,0.05
CS(=O)(=O)c1sc(C(=O)Nc2ccc(Cl)cc2)c2c1C=CCC2,-0.05,-0.3
CN1CCCC(OC(=O)C2CCCCC2)C1 (configuration not stated),-2.55,0.275
CS(=O)c1cnc(N)nc1-c1ccc(C(F)(F)F)cc1 (configuration not stated),/,-0.005
O=C(Nc1ncn[nH]1)c1ccccc1O,0.25,25.3
CCOC(=O)Cn1c(=O)oc2cc(S(=O)(=O)Nc3cccc(CC)c3)ccc21,-0.35,0.305
C1=CCC2CCC(C1)N2,-0.55,/
O=C(NCCNc1ccc2ccccc2c1)c1ccc2nc3ccc(Cl)cc3c(=O)n2c1,-0.1,1.21
Nc1nonc1-n1nnc(C(=O)N/N=C/c2ccncc2)c1-c1ccccc1,0.2,-0.035
COc1nnc(-c2ccc(N3CCCCC3)c(NC(C)=O)c2)c2ccccc12,1.9,-0.335
CC12CCC(=O)N1C(C(=O)Nc1cccc3ccccc13)CS2 (configuration not stated),-0.15,/
O=C(Nc1ccc(CS(=O)c2ccccc2)cc1)c1ccc(F)cc1F (configuration not stated),/,0.075
Cn1cc(CN(Cc2ccccc2)C(=O)Nc2ccccc2)c2ccccc21,1.15,-0.205
COc1ccc(C2CC(C3(C)CCCCC3)=NO2)cc1 (configuration not stated),-0.7,-0.01
CC(=O)N1CCCc2ccc(NC(=O)C(C)C)cc21,-0.65,/
CCc1ccc(C2NC(=O)NC3=C2C(=O)CC(C)(C)C3)cc1 (configuration not stated),-1.55,0.44
CCN(CC)S(=O)(=O)c1ccc(N(C)Cc2ccccc2OC)nc1,1.45,/
O=C(O)CC(CC(=O)N1CCN(C(=O)c2ccco2)CC1)c1ccccc1 (configuration not stated),-0.4,-0.65
N#CC1=C(N)Oc2cc(O)ccc2C1c1ccccc1 (configuration not stated),-0.8,0.165
O=S(CC(O)(c1ccccc1)c1ccccc1)c1c(Cl)cccc1Cl (configuration not stated),/,-0.7
CCOc1cccc(C2C(C(=O)OC)=CN(CC)C=C2C(=O)OC)c1,2.3,68

# Continuation.
SMILES,AID504770,CapD inh
O=C1NC(c2ccccc2)(c2ccccc2)C(=O)N1CN1CCN(S(=O)(=O)c2cccs2)CC1,0.75,/
Cc1cc(-c2nnc(-c3ccc(C(F)(F)F)cc3)o2)no1,-0.05,-1.78
O=C(c1cc2nc(-c3ccc4c(c3)OCO4)cc(C(F)(F)F)n2n1)N1CCc2ccccc2C1,/,0.28
CC(NS(=O)(=O)c1ccc(F)cc1)C(=O)Nc1ccccc1Cl (configuration not stated),/,-0.73
CCOC(=O)N1CCC(NC(=O)c2ccc3nc(-c4cccs4)c(-c4cccs4)nc3c2)CC1,0.1,0.135
Cc1sc(N)c(C(N)=O)c1C,-0.75,-0.12
Cc1ccc(NC(=O)C(F)(F)Oc2cccc(C(F)(F)F)c2)c(C)c1,/,-0.425
c1ccc(-c2ccc3c(n2)CCc2ccccc2-3)cc1,-0.55,7.74
COc1cc2nc(CSc3nnc(C4CC4)n3C3CC3)[nH]c(=O)c2cc1OC,0.45,/
COc1ccc(NC(C)=O)cc1,-0.05,/
COc1ccc(NC(=O)c2ccco2)c(NC(=O)Cc2cccs2)c1,-0.9,0.17
Cc1c(CC(Cl)(Cl)Cl)c2c(n1N1CCOCC1)CCCC2=O,/,-0.085
COc1ccc(NC(=O)CSc2nc3n[nH]c(C)c3c(=N)n2-c2ccccc2Cl)c(OC)c1,/,0.175
Cc1nc(-c2ccccc2)cc(N2CCCC2)n1,-1.05,4.75
CCOCCOC(=O)C(C)Oc1ccc2c(=O)c(Oc3cc(C)cc(C)c3)coc2c1 (configuration not stated),/,-0.32
CC(C)(C)C(=O)COC(=O)Cn1nnc(N2CCCC2)n1,0.85,1.08
CC(C)(C)C(=O)Cn1c(=O)n(CC2CCC(C(=O)NCc3ccccc3)CC2)c(=O)c2ccccc21 (configuration not stated),-0.75,-0.145
CCOc1ccc2nc(SCC(=O)Nc3ccc4nc(SCC(=O)N5CCOCC5)sc4c3)sc2c1,/,-0.09
CC(C)C1=CC2=C(CC(C)(C)CC2=O)OC1N(C)C (configuration not stated),0.15,-1.76
Cc1nnc(NCCc2ccccc2)c2c1nnn2Cc1ccc(F)cc1,0.55,-0.215
CCOC(=O)c1c(C)[nH]c(C)c1S(=O)(=O)N(CC)c1ccc(OC)cc1,1,-0.1
CCn1c(C(=O)O)c(CNCc2cccc(Cl)c2)c2ccc(C)cc21,0.95,-1.15
O=C(OCc1ccc(/C=C/c2ccccc2)cc1)N1CCN(c2ccccn2)CC1,/,9.32
CSC(=NCc1ccc(-c2cccs2)s1)NC#N,1.55,6
Cc1cc(NC(=O)Cc2cccc3ccccc23)no1,0.9,0.09

# Later entries:
SMILES,AID504770,CapD inh
CSC(SC)=C(C#N)c1nc2ccccc2s1,2,-0.64
CCCc1cc(=O)[nH]c(SCC(=O)Nc2ccc(F)c(Cl)c2)n1,/,0.725
CCOC(=O)c1c(CSC#N)oc2ccc(OC(C)=O)cc12,-0.9,-0.61
CCN(CC)C(=O)C1=CC(c2ccc(F)cc2)=NS(=O)(=O)N1C,-0.55,1.88
Cc1ccc(-c2nnc(SCC(=O)N3CC(C)CC(C)C3)o2)cc1 (configuration not stated),-0.95,0.23
CC1(C)CC(=O)C2=C(C1)N(c1cccc([N+](=O)[O-])c1)C(N)=C(C#N)C2c1ccc2c(c1)OCO2 (configuration not stated),/,0.12
COc1cc(/C=C2\N=C(c3cccc(Br)c3)OC2=O)ccc1OC(C)=O,/,0.835
COc1ccc(Cc2nnc(N)o2)cc1OC,0.25,0.995
CCOC(=O)c1nccnc1N(C(=O)c1ccc(C)cc1)C(=O)c1ccc(C)cc1,-0.6,-0.07
CC1=CC(C)C(COC(=O)CN2CCOCC2)C(C)C1 (configuration not stated),-0.3,0
COc1ccc(C(C#N)=C2SCCS2)cc1,0.4,-1.2
Cc1cc(C)n2nc(C(=O)NC(C)C3CC4CCC3C4)nc2n1 (configuration not stated),-0.6,/
CCOC(=O)CC1C(=O)NCCN1Cc1cccc2ccccc12 (configuration not stated),0,/
NC(=O)c1ccc[n+](CC(=O)c2ccccc2)c1,0.2,0.07
Cc1cccc(N2CCN(c3cccc(C)c3)C2c2ccc(N(C)C)cc2)c1,/,-0.225
Cc1ccc(C(CC(=O)O)C2CCOC(C)(C)C2)cc1 (configuration not stated),-0.05,/
O=c1cc(-c2ccccc2)nc(SCCO)[nH]1,-1.45,/
Cc1ccc(-c2nc(-c3ccc(Br)cc3)[nH]c2-c2ccccc2)cc1C,/,0.12
CCN1CCc2c(OCC(=O)Nc3ccc(OC)cc3)cccc2C1=O,-0.25,/
CCN1CCCC1CNC(=O)c1ccc(-n2ccc3ccccc32)s1 (configuration not stated),-0.6,34.6
O=C(NCc1ccco1)/C(=C\c1ccco1)NC(=O)c1ccccc1,/,-1.6
CCCN1CCN(C(=O)c2sc3nc(C)nc(N4CCN(c5ccccn5)CC4)c3c2C)CC1,/,-0.53
Cc1cc(C)cc(N2C(=O)N(CC(=O)NC(C)C)C3CS(=O)(=O)CC32)c1 (configuration not stated),-0.25,0.38
COc1cc(/C=N/NC(=O)c2ccccc2-n2cccc2)ccc1O,-0.1,/
COc1ccc(C2=NN(C(=O)CCCC(=O)O)C(c3ccccc3Cl)C2)cc1 (configuration not stated),/,3.54

# Next part
SMILES,AID504770,CapD inh
CCOC(=O)C1=C(N)Oc2n[nH]c(-c3ccccc3)c2C12C(=O)Nc1ccccc12 (configuration not stated),/,0.335
CCOc1ccc(C2=NN3C(C2)c2cccc(OC)c2OC3c2ccc(F)c(F)c2)cc1 (configuration not stated),/,0.01
COC(=O)CC1C(=O)NCCN1C(=O)CSc1nc2ccccc2c(=O)n1-c1ccc(C)cc1 (configuration not stated),2.2,/
Clc1nc(-c2ccccc2)nc2ccccc12,-0.4,/
CCN(CC(O)c1cccc(O)c1)C(=O)C12CC3CC(CC(C3)C1)C2 (configuration not stated),1.5,-0.275
Cc1ccc2c(c1)-c1c(ssc1=S)C(C)(C)N2C(=O)C(Cc1ccccc1)N1C(=O)c2ccccc2C1=O (configuration not stated),/,-0.66
O=C(O)c1cnn(-c2ccccc2)c1-n1cccc1,1.35,0.09
COC(C(=O)NCc1ccccc1C)c1ccccc1 (configuration not stated),-0.95,0.035
Clc1ccc(NCC2CCCCC2)nn1,1.15,1.1
CCN(CC)C(=O)c1ccc2c(c1)N(Cc1ccc(F)cc1)C(=O)c1ccccc1S2=O (configuration not stated),-0.1,-0.15
CN(C)CCOC(=O)C1(c2ccccc2)CCOCC1,-3.7,0.41
O=C(NCc1ccccc1)N1CCN(C(c2ccc(F)cc2)c2ccc(F)cc2)CC1,-2.85*,-0.955
CCC(CC)c1nnc(NC(=O)C2=NNC(=O)CC2)s1,-0.5,/
O=C(CSc1nnc(-c2ccccc2F)n1Cc1ccccc1)N1CCNC1=O,0.2,/
CCCCS(=O)(=O)c1sc2nc3c(cc2c1N)CCCC3,0.55,5.12
CSc1nc2ccccc2c(=O)[nH]1,2.3,0.68
CCOc1ccc2cc(-c3nc4ccccc4s3)c(=O)oc2c1,/,0.625
COc1ccccc1N1CCN(C(=O)/C(=C/c2cccnc2)NC(=O)c2ccccc2)CC1,/,0.54
CCCCOc1ccc(/C=N/n2cnnc2)cc1,0.8,/
CCC(CC)C(=O)NCCc1cc2ccc(C)cc2[nH]c1=O,-1.15,3.31
O=C(c1cccc(C(F)(F)F)c1)N1CCN(Cc2cc3cccc4c3n(c2=O)CCC4)CC1,/,2.08
COc1ccc(OC)c(S(=O)(=O)NCC(c2ccc(N(C)C)cc2)N2CCc3ccccc32)c1 (configuration not stated),-1.3,-0.05
CCOC(=O)C1=C(O)/C(=C/c2ccc(OCC(=O)O)c(OC)c2)SC1=Nc1ccc(OC)cc1,/,-0.665
O=C(O)C1CCC(CNCc2cccc(Br)c2)CC1 (configuration not stated),-0.75,-0.55
COc1ccccc1C(=O)C(O)c1ccccc1OC (configuration not stated),-0.3,-0.44

# (list continues)
SMILES,AID504770,CapD inh
CC1CCC(NC(=O)COc2ccc3c(c2)OCO3)CC1 (configuration not stated),-0.5,/
COc1ccccc1CNS(=O)(=O)c1ccc(F)c(C(=O)Nc2ccc(Cl)cc2C(F)(F)F)c1,/,0.535
NC(=O)CSCc1c(Cl)cccc1Cl,0.2,0.4
COc1cc2c(cc1NC(=O)C(C)Sc1nnc(-c3cccs3)n1CC1CCCO1)oc1ccccc12 (configuration not stated),0.3,/
C=CCc1c(C)nc2ccccc2c1Cl,-0.8,/
O=C1CC(C(=O)NCc2ccccc2)N=C(N2CCOCC2)N1 (configuration not stated),-0.6,18.8
COc1ccc(-c2[nH]nc3c2C2(C(=O)Nc4ccc(C)c(Br)c42)C(C#N)=C(N)O3)cc1OC (configuration not stated),/,-0.05
COC(NC(=O)c1ccccc1)(C(F)(F)F)C(F)(F)F,-0.6,-0.14
Cc1nn(S(=O)(=O)c2ccccc2)c(C)c1S(=O)(=O)N1CCCCC1,-1.15,/
CS(=O)(=O)N1N=C(c2ccc(Br)cc2)CC1c1cc2ccccc2nc1Cl (configuration not stated),0.45,-0.455
COC(=O)C1=C(C(=O)OC)SC(=C2C(=S)C(C)(C)N(C(=O)c3ccc(F)cc3)c3ccccc32)S1,/,9.72
O=C(N/N=C/c1oc(O)c2ccccc12)C(=O)Nc1ccc(Cl)cc1Cl,/,0.11
CC1=C(C(=O)Nc2ccccc2)C(c2ccccc2)n2nnnc2N1 (configuration not stated),/,-0.29

# By substructure: the compounds so far with two or more sulfur atoms
SMILES,AID504770,CapD inh
CC(=O)Nc1ccc(S(=O)(=O)N(c2ccc(C(F)(F)F)cc2)S(=O)(=O)c2ccc(NC(C)=O)cc2)cc1,/,-0.225
CS(=O)(=O)c1sc(C(=O)Nc2ccc(Cl)cc2)c2c1C=CCC2,-0.05,-0.3
O=C1NC(c2ccccc2)(c2ccccc2)C(=O)N1CN1CCN(S(=O)(=O)c2cccs2)CC1,0.75,/
CCOC(=O)N1CCC(NC(=O)c2ccc3nc(-c4cccs4)c(-c4cccs4)nc3c2)CC1,0.1,0.135
CCOc1ccc2nc(SCC(=O)Nc3ccc4nc(SCC(=O)N5CCOCC5)sc4c3)sc2c1,/,-0.09
CSC(=NCc1ccc(-c2cccs2)s1)NC#N,1.55,6
CSC(SC)=C(C#N)c1nc2ccccc2s1,2,-0.64
COc1ccc(C(C#N)=C2SCCS2)cc1,0.4,-1.2
Cc1ccc2c(c1)-c1c(ssc1=S)C(C)(C)N2C(=O)C(Cc1ccccc1)N1C(=O)c2ccccc2C1=O (configuration not stated),/,-0.66
CCCCS(=O)(=O)c1sc2nc3c(cc2c1N)CCCC3,0.55,5.12
COc1cc2c(cc1NC(=O)C(C)Sc1nnc(-c3cccs3)n1CC1CCCO1)oc1ccccc12 (configuration not stated),0.3,/
Cc1nn(S(=O)(=O)c2ccccc2)c(C)c1S(=O)(=O)N1CCCCC1,-1.15,/
COC(=O)C1=C(C(=O)OC)SC(=C2C(=S)C(C)(C)N(C(=O)c3ccc(F)cc3)c3ccccc32)S1,/,9.72

# Complete entries, looked up by structure. Values in the order: AID504770	CapD inh
# Entry for `O=C(N/N=C/c1oc(O)c2ccccc12)C(=O)Nc1ccc(Cl)cc1Cl` : /	0.11
# Entry for `COc1ccc(Cc2nnc(N)o2)cc1OC` : 0.25	0.995
# Entry for `CS(=O)(=O)N1N=C(c2ccc(Br)cc2)CC1c1cc2ccccc2nc1Cl` (configuration not stated) : 0.45	-0.455
